Beta2AR agonist – human beta-2 adrenergic receptor agonism by FAP; AID 504454; P07550; 340,000 tested, 0.43% active; response, % (concentration not given with the values); Am2.2-beta2AR cells, FAP receptor internalization, flow cytometry; reference of the scale not given here;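 active = response above a set limit, near 3 SD of response in nonfluorescent compounds, cut at about 42% in these data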;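 also: stock transfer was 100 nL into about 11 µL; a reference agonist was the positive control; negative values mostly stem from fluorescent compounds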
Beta cell apopt – blocks beta cell apoptosis | INS-1E cytokine-induced death, ATP luminescence, 48 h; percent of positive-control rescue, neutral wells zero | 300,000 tested, 0.8% active | protection from apoptosis, % (no concentration beside the values);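 active = all replicates at 75% or more, or half of them and the mean; inconclusive = half reach 75% but not the mean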;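 also: 0% = cytokine-treated negative control wells and 100% = positive control rescue; higher means more ATP so stronger rescue from cytokine killing; wells of about 40 µL received 100 nL stock; the first replicate is given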
Calb FLC – affects C. albicans growth with fluconazole | C. albicans CaCi-2 (fluconazole-resistant clinical isolate) + fluconazole, Alamar Blue growth, 48 h | growth inhibition, % (no concentration beside the values) | 300,000 tested, 0.57% active;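 active = most replicates above 75%; inconclusive = exactly half above 75%; inactive = most below 75%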;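 also: all wells also contain fluconazole at 8 µg/ml as a sub-toxic cotreatment; 0% = median of DMSO wells and 100% = median of geldanamycin control wells; wells of about 8 µL received 7.5 nL stock; the first replicate is given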
T cruzi repl – blocks replication of Trypanosoma cruzi | T. cruzi beta-gal in NIH3T3, luminescence, 90 h | inhibition, % (no concentration beside the values) | 300,000 tested, 1.4% active | AID 1885;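 active = mean inhibition across valid replicates above about 55%, limit read from the data; inconclusive = mean below that limit but half or more replicates reach it; inactive = mean below it, under half of replicates reach it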;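 also: signal also drops with host cell toxicity which is not excluded here; 0% = plate median of DMSO wells and 100% = zero luminescence signal; higher percent means less beta-gal luminescence so fewer parasites; stock transfer was 50 nL into about 50 µL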
LANA-H2A inh – blocks KSHV LANA binding to histone H2A/H2B. inhibition, % (test concentration not listed). Q9QR71. cell-free LANA-H2A/H2B peptide, fluorescence polarization. 320,000 tested, 0.6% active. AID 2629; in the data active = inhibition mostly above about 10%, no sharp cut-off; inactive = mostly below about 6.7%;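 also: stock transfer was 7.5 nL into about 10 µL; 0% = median of vehicle wells and 100% = median of positive control wells; one replicate is shown; the record names a cut of 25% in any replicate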
Target sequence (Q9QR71 whole entry, looked up): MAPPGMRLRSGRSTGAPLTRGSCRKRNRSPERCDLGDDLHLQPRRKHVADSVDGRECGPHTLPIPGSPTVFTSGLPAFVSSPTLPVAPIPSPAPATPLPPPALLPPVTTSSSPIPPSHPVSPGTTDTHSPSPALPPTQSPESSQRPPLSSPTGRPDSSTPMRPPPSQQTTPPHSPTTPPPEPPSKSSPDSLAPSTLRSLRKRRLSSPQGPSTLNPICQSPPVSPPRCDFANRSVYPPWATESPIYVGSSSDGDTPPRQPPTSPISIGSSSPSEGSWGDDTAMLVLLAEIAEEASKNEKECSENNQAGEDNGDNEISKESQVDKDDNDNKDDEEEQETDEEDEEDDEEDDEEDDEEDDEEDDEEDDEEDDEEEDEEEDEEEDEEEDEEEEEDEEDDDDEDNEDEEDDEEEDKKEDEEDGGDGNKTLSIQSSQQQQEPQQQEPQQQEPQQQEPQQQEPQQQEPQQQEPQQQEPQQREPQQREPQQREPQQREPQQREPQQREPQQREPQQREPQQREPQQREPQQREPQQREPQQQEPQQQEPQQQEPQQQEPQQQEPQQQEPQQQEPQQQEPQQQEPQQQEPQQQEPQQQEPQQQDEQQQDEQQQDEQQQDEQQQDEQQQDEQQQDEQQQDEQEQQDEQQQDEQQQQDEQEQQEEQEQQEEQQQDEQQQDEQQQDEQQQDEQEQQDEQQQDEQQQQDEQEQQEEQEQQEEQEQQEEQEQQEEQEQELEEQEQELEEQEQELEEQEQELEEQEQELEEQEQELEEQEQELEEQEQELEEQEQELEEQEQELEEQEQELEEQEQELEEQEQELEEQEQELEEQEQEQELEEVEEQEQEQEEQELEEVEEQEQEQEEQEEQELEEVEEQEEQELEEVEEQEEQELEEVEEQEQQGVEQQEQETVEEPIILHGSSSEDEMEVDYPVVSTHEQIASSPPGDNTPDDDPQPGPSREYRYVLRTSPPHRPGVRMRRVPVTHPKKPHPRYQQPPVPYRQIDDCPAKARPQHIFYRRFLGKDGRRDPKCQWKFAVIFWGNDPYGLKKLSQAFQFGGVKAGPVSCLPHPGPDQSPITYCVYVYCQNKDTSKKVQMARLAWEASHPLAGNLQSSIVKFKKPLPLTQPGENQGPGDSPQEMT
Bfl-1 A1 inh – inhibitors of the anti-apoptotic protein A1, read as caspase activation; MEF A1-2A-BIM cells, Caspase-Glo 3/7 luminescence, 3 h; percent of clofoctol response, vehicle zero; caspase activation, % (test concentration not listed); 330,000 tested, 0.066% active; AID 2462;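 active = over half of replicate activation scores above 10%, or exactly half above 10 with the replicate mean above 10; inconclusive = replicate mean below 10 yet half the replicates above 10; inactive = over half of replicates below 10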;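 also: wells of about 30 µL received 50 nL stock; many hits fall short of the cut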
ALR inh – human ALR oxidase inhibition via reduced H2O2; purified ALR, DTT oxidation, H2O2 HRP-luminol luminescence; inhibition, % (no concentration beside the values); 290,000 tested, 3.8% active; P55789;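 active = mean and each replicate at 75% or more; inconclusive = only one of the two met; inactive = neither met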;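 also: stock transfer was 7.5 nL into about 7.5 µL; 0% = neutral wells and 100% = wells with inactivated enzyme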
Ecoli rRNA inh – inhibitors of bacterial rRNA selective over humanized ribosomes. E. coli WT GFP vs humanized-ribosome RFP mutants, fluorescence, 24 h; stronger effect = lower value; DMSO median 0, no signal -100. GFP signal change (wild-type ribosome), % (no concentration beside the values). 350,000 tested, 1.6% active. AID 720706;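 active = significant combined selectivity score with lowered wild-type GFP, culture density cut under 30%, mutant RFP and density less affected; inactive = any of these conditions unmet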; also: one replicate is shown; some compounds called inactive have numbers as strong as hits
Ecoli rRNA inh OD600 – recorded beside Ecoli rRNA inh, whose call it bears; OD600 change, %; measured here: OD600 growth;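 optical density of the mix in the first replicate; 0 = DMSO median and -100 = no signal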
Ecoli rRNA inh RFP – further read-out of Ecoli rRNA inh, marked with its call; RFP signal change, %; measured here: RFP humanized mutant strains;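 first replicate; 0 = DMSO median and -100 = no signal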
* hit, by the source's call; ? = inconclusive; . = not tested or not shown; & = joins results of further samples. An excerpt; count on the stated rates, not on these rows.

SMILES	Beta2AR agonist	Beta cell apopt	Calb FLC	T cruzi repl	LANA-H2A inh	Bfl-1 A1 inh	ALR inh	Ecoli rRNA inh	Ecoli rRNA inh OD600	Ecoli rRNA inh RFP
Cc1c(Cl)cccc1NC(=O)Cn1nnc(C(=O)NCc2cccs2)c1N	4	-2	-6	-18	0.7	0.4	-11	.	.	.
Clc1ccc(-c2nnc(-c3ccccc3)o2)cn1	-7	5	-7	-8	2.8	-3.7	-5	5	19	1.0
O=C(CSc1nc(-c2ccccc2)cc(=O)[nH]1)NCc1ccc2c(c1)OCO2	-1	-4	2	-12	2.2	0.0	-3	.	.	.
COc1ccc(C2NC(=O)NC(C)=C2C(=O)OCC2CCCCC2)cc1OC (stereo not drawn)	-6	2	-2	13	-2.6	1.0	-5	-6	-13	-4.0
Cc1ccc(OCc2nnc(SCC(=O)NC3CCCCC3)n2C)cc1	-13	2	-3	8	6.0	-0.2	-14	.	.	.
COc1ccc(OC)c(S(=O)(=O)N2CCC(C(=O)N3CCN(c4ccc(F)cc4)CC3)CC2)c1	-1	1	54	14	4.4	0.8	-20	-5	-3	0.1
COc1ccc(N2CC(C(=O)NCCc3ccc(OC)c(OC)c3)CC2=O)cc1 (stereo not drawn)	15	-7	-3	-11	1.3	-1.0	-5	.	.	.
CC[C@@H]1[C@H]2CCCC(=O)N3CC[C@@H](C[C@@H]1Nc1ccccc1)[C@@H]23	-9	2	-3	4	-0.8	0.6	99*	-11	-8	-5.4
Cc1nc(SCc2nc3ccc(C(=O)c4ccccc4)cc3[nH]2)c2oc3ccccc3c2n1	-5	2	.	.	1.5	1.1	-7	10	15	2.1
OC1CCC(NC(=S)Nc2ccc(SC(F)F)cc2)CC1 (stereo not drawn)	2	-9	-4	6	0.7	-0.1	2	-5	-6	-3.1
C[C@@H]1[C@H]2[C@@H](O[C@@H]3O[C@H](CO)[C@@H](O)[C@H](O)[C@H]3O)OC=C(C(=O)O)[C@H]2C[C@@H]1O	5	-1	2	-3	4.2	0.8	-12	10	0	-7.4
O=C(NCCCN1CCOCC1)c1ccc(Cl)s1	-4	-6	?	-9	-9.6	0.5	-18	.	.	.

Continued, starting with the last 5 of the part before.
SMILES	Beta2AR agonist	Beta cell apopt	Calb FLC	T cruzi repl	LANA-H2A inh	Bfl-1 A1 inh	ALR inh	Ecoli rRNA inh	Ecoli rRNA inh OD600	Ecoli rRNA inh RFP
CC[C@@H]1[C@H]2CCCC(=O)N3CC[C@@H](C[C@@H]1Nc1ccccc1)[C@@H]23	-9	2	-3	4	-0.8	0.6	99*	-11	-8	-5.4
Cc1nc(SCc2nc3ccc(C(=O)c4ccccc4)cc3[nH]2)c2oc3ccccc3c2n1	-5	2	.	.	1.5	1.1	-7	10	15	2.1
OC1CCC(NC(=S)Nc2ccc(SC(F)F)cc2)CC1 (stereo not drawn)	2	-9	-4	6	0.7	-0.1	2	-5	-6	-3.1
C[C@@H]1[C@H]2[C@@H](O[C@@H]3O[C@H](CO)[C@@H](O)[C@H](O)[C@H]3O)OC=C(C(=O)O)[C@H]2C[C@@H]1O	5	-1	2	-3	4.2	0.8	-12	10	0	-7.4
O=C(NCCCN1CCOCC1)c1ccc(Cl)s1	-4	-6	?	-9	-9.6	0.5	-18	.	.	.
CCOC(=O)C[C@H]1c2cc(F)ccc2S(=O)(=O)N1c1ccccc1	-1	-6	-1	-14	-1.6	0.7	4	-2	8	-8.2
COc1ccccc1N1CC(C(=O)Nc2ccc(C)c(S(=O)(=O)N3CCOCC3)c2)CC1=O (stereo not drawn)	2	4	.	.	-2.3	-0.2	-14	0	-6	0.2
O=C(Nc1cc(Sc2nc3ccccc3s2)cc([N+](=O)[O-])c1)c1cccc(F)c1F	-10	.	4	52	0.1	0.1	-3	.	.	.
CCc1cc2ccc(C)c(C)c2nc1SCC(=O)Nc1cc(C)on1	1	-3	-3	0	-0.7	-0.1	-1	1	3	-2.1
CC(C)(C)C(O)C(Cc1ccccc1Cl)n1cncn1 (stereo not drawn)	-5	-6	2	42	-7.4	-1.1	-3	6	10	1.1
CCCN1CCN(CCCNC(=O)c2ccc3c(=O)n(CCc4ccccc4)c(=O)[nH]c3c2)CC1	-4	-2	29	20	7.4	0.5	.	3	-2	-0.8
COc1ccc(CCNC(=O)C2CC(=O)N(CCc3ccccc3)C2)cc1OC (stereo not drawn)	-2	-3	0	-8	2.4	0.7	1	6	1	-2.6
CCCn1ncc(CN2CCN(CCc3ccccc3)C(CCO)C2)c1C (stereo not drawn)	0	-7	-7	11	-7.2	1.6	-1	5	11	-0.7
C=CCOc1cccc(CNCc2ccncc2)c1	1	.	-5	27	-1.8	0.8	2	2	5	-2.0
CCN1CCN(c2cc(C)c3cc(NC(=S)NCCN(C)C)ccc3n2)CC1	14	-5	-2	26	-0.5	1.2	-27	8	9	-1.3
O=C(NC1CCN(Cc2ccccc2)CC1)c1ccccc1OCc1ccccc1	1	8	11	8	-0.8	-0.2	-9	-7	-7	2.8
CCN=c1scc(-c2ccc3c(c2)NC(=O)CO3)n1N=C1CCCC1	16&6	3	93*	-11	-2.2	0.2	91*	-14	-3	3.0

Overlap with the part before: 2 entries; new compounds follow.
SMILES	Beta2AR agonist	Beta cell apopt	Calb FLC	T cruzi repl	LANA-H2A inh	Bfl-1 A1 inh	ALR inh	Ecoli rRNA inh	Ecoli rRNA inh OD600	Ecoli rRNA inh RFP
O=C(NC1CCN(Cc2ccccc2)CC1)c1ccccc1OCc1ccccc1	1	8	11	8	-0.8	-0.2	-9	-7	-7	2.8
CCN=c1scc(-c2ccc3c(c2)NC(=O)CO3)n1N=C1CCCC1	16&6	3	93*	-11	-2.2	0.2	91*	-14	-3	3.0
CCOP(=O)(OCC)C(NC(=O)c1ccc(OC)cc1)c1ccccc1 (stereo not drawn)	6	-3	5	2	5.7	0.0	-6	10	5	-4.8
N#C/C(=C\c1ccc(O)c(Br)c1)C(=O)N1CCCCC1	13	-6	-5	5	1.0	-5.0	54	-18	-24	-6.7
CCn1c(SCC(=O)NCc2ccc3c(c2)OCO3)nnc1-c1ccncc1	0	-6	5	-11	-2.8	-2.9	-5	16	11	-6.3
COc1ccc(-n2c(=O)c3c4c(sc3n(CC(=O)Nc3cc(C)[nH]n3)c2=O)CCCC4)c(OC)c1	-10	3	9	1	-2.3	0.5	2	-4	-5	4.5
COc1ccccc1NC(=O)c1ccc(-n2cccn2)c([N+](=O)[O-])c1	-1	4	10	-10	-5.1	0.4	0	9	3	-0.3
Nc1nc(N)nc(-c2cc(O)ccc2O)n1	2	-13	.	.	-5.2	0.9	91*	15	22	17
O=C(CN1CCCCC1)Nc1cccc(Cl)c1Cl	-5	4	-4	17	-4.3	-0.3	-4	.	.	.
[O-]C1=N/[N+](=C/c2ccccc2)CC1	-12	0	4	-3	6.1	-0.8	4	9	7	-3.4
CCCCN=CC1=C(O)CC(c2ccccc2)CC1=O (stereo not drawn)	3	0	4	4	6.3	-0.6	.	2	8	3.6
CCC(=O)c1ccc(OCC(O)CNC2CCCC2)cc1 (stereo not drawn)	0	0	-8	8	-3.8	0.7	-2	-4	-16	-2.1
CCN(CC)CCNc1nc(SC)nc2sc3c(c12)CCN(C)C3	5	-1	-1	12	5.4	-0.1	-3	1	12	2.7
O=C(N/N=C/c1ccco1)c1cc(-c2ccncc2)nc2ccccc12	-4	.	-10	-11	.	.	.	4	13	-1.0
CC1=C(C(=O)N2CCOCC2)C(c2c(F)cccc2F)NC(=O)N1 (stereo not drawn)	9	.	-7	0	-5.1	-0.4	-17	17	8	2.5
O=Cc1ccccc1Oc1nc(N2CCOCC2)nc(N2CCOCC2)n1	4	2	6	1	-3.9	1.0	-4	2	3	2.5
COc1cccc(C(=O)NCC2CCCN2S(=O)(=O)c2ccccc2)c1 (stereo not drawn)	5	0	-8	10	-1.1	0.5	3	4	1	0.5
O=C(NNC(=S)Nc1cccc(Cl)c1)c1ccccc1	3	6	5	-11	-0.2	0.2	26	-50	-70	-15
Cc1cc(C(=O)NNC(=O)c2cccs2)c(C)o1	12	1	.	.	.	-1.1	6	3	9	-1.2
COc1ccc(-n2nc(C(=O)NCC(=O)NCc3ccc(F)cc3)c3ccccc3c2=O)cc1OC	11	6	-5	-4	0.0	-0.3	.	4	2	-1.5
COCCNc1nnc(Cc2ccc(Cl)cc2)c(=O)[nH]1	-10	.	11	1	-9.0	0.5	.	7	12	0.7
CCOc1ccccc1CN1CCCC(C(=O)Nc2cccc(-n3cccn3)c2)C1 (stereo not drawn)	3	1	-5	41	6.2	0.3	-10	-2	-10	12
Cc1sc2ncnc(N3CCN(S(=O)(=O)c4ccc(F)cc4)CC3)c2c1C	5	39	-5	31	-1.2	0.0	-5	-9	-35	-2.6
c1ccc(OCCN2CCN(Cc3nc(-c4ccc5c(c4)OCO5)no3)CC2)cc1	1	2	-40	43	0.0	0.3	-9	.	.	.
COC(=O)c1sc(NC(C)=O)c(C(=O)OC)c1C	6	-1	1	3	2.6	0.0	-3	.	.	.
COc1ccc(OC)c2c1sc(=NC(=O)C(C)(C)C)n2C	-12	2	1	19	-0.4	0.3	-4	-1	6	-4.6
O=C(CN1CCN(c2ccccc2)CC1)Nc1ccc(-n2cnnn2)cc1	8	-4	19	-4	0.4	0.2	-3	10	3	-5.8
CN(NC(=O)c1c(Cl)cccc1Cl)c1cccc(Cl)n1	-4	-5	-6	-16	-1.0	0.4	0	-5	-11	-1.1
CNc1cc([N+](=O)[O-])ccc1N/C=C/C(=O)c1ccc2c(c1)OCO2	26	-9	3	14	3.1	-1.1	-6	.	.	.
COc1cc(CCC(=O)OCC(=O)N2CC(=O)Nc3ccccc32)cc(OC)c1OC	-2	0	.	.	-1.9	-0.1	-5	0	-7	0.0
Cc1ccc(S(=O)(=O)N(C)C)cc1NC(=O)C(C)N(C)Cc1sccc1C (stereo not drawn)	-10	0	-3	8	2.4	0.0	.	-11	-45	-5.4
CS(=O)(=O)N(CC(=O)N1CCOCC1)c1ccc2c3c(cccc13)CC2	2	-2	4	0	-2.7	1.8	-23	.	.	.
CN(Cc1ccccc1)Cc1c(F)cccc1F	5	-3	-8	-9	2.5	-0.6	-13	.	.	.
CC1CCc2nc(N)c(C#N)c(-c3cccnc3)c2C1 (stereo not drawn)	-9	-17	-11	-24	-7.1	-0.9	.	7	-4	7.5
CCc1nnc(NC(=O)c2cccc(S(=O)(=O)N3CCCCC3)c2)s1	14	6	12	14	0.2	0.7	2	3	5	-3.2

Screening data: PubChem, several laboratories
